Source: PubChem BioAssay (National Center for Advancing Translational Sciences (NCATS))
Menin-MLL FL inh = qHTS Assay for Inhibitors Targeting the Menin-MLL Interaction in MLL Related Leukemias: Competition With Fluorescein Labeled MLL-derived Peptide | Fluorescence polarization, fluorescein-MLL peptide displacement from menin | FP activity change, % at 61.4 µM | 290,000 tested, under 10 active; inconclusive = falling polarisation curve, or a change in total fluorescence; inactive = total fluorescence flat and polarisation flat or rising; no compound was filed as active; the % refers to the polarisation; negative = inhibition;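 note: % of control where 0% means no effect; inhibitors lower the polarisation; unlabelled MLL peptide was the positive control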
ClpP mod = qHTS Assay for Activators of ClpP. AID 651965, 2013. purified B. subtilis ClpP, FRET peptide cleavage, 20 min. ATP-dependent Clp protease proteolytic subunit (Bacillus subtilis (strain 168)), P80244. Potency, µM (top dose mostly 57.5 µM), for the others: at the highest dose activity change, negative = active. 340,000 compounds, 1.9% hits; active = well fitted falling curve with a large enough effect; inconclusive = small, poorly fitted or top-dose-only effect; inactive = no such curve, though single readings can be large or run the other way; note: potency is the fitted concentration of half-maximal effect; the source files actives as falling curves though it sought activators and does not explain the sign; nearly all actives have a fitted effect of over 65% in size; many hits overshoot -100%
Target sequence (P80244 whole entry, looked up): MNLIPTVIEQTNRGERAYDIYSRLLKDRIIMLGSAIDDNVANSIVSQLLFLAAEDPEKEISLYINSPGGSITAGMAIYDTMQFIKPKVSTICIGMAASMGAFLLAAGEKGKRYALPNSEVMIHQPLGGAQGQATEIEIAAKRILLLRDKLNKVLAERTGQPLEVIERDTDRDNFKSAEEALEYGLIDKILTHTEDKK
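Purified B. subtilis ClpP, 10 microg/mL final in Tris/HCl pH8 with KCl, BSA, glycerol and Tween-20, cleaved an Abz/nitrotyrosine-quenched decapeptide. Fluorescence (ex 320, em 430) was read at 0 and 20 min at room temperature. Delta was normalized to 5.8 microM ADEP and DMSO/no-enzyme controls.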
gsp agonist = qHTS for Agonist of gsp, the Etiologic Mutation Responsible for Fibrous Dysplasia/McCune-Albright Syndrome: qHTS | gsp mutant cells, cAMP HTRF, 30 min; control for the full effect not named in the record | Potency, µM (top dose mostly 76.9 µM), for the others: at the top dose activation (cAMP increase), most hits filed as activators | 340,000 compounds, 0.13% hits | AID 624287, 2012; active = well fitted activation curve with a large enough effect; inconclusive = small, poorly fitted or top-dose-only effect, or another doubt; inactive = no such curve, though single readings can be large or run the other way; cell line not stated here;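 note: phosphodiesterase inhibitor Ro 20-1724 added with compounds to block cAMP breakdown; potency is the fitted concentration of half-maximal effect; nearly all actives have a fitted effect of over 60% in size; about a fifth of the inactives were tested at one dose only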
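Cells in DMEM/10% FBS with G418 were pretreated with compounds in DMSO plus […] (300 uM stock) for 30 min at 37C. cAMP was measured by HTRF (cAMP-d2 plus anti-cAMP antibody-K) after 30 min at room temperature.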
gsp antag = qHTS for Antagonists of gsp, the Etiologic Mutation Responsible for Fibrous Dysplasia/McCune-Albright Syndrome: qHTS; gsp-mutant cells, cAMP HTRF, 30 min; control for the full effect not named in the record; Potency, µM (series often up to 76.9 µM), for the others: top-dose activity change, negative = inhibition, usual class: inhibitors; 340,000 compounds, 0.4% hits; active = falling curve of any shape with a large fitted effect; inconclusive = falling curve, mostly with a smaller effect; inactive = flat or rising curve; cell line not stated here;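 note: intracellular cAMP measured with PDE inhibitor Ro 20-1724 present during compound exposure; potency is the fitted concentration of half-maximal effect; % is set by controls: 0 for no effect and ±100 for the full control effect; nearly all actives have a fitted effect of over 65% in size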
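Measurement of cellular cAMP by homogeneous time-resolved fluorescence following a 30 min compound exposure at 37C. The PDE inhibitor […] was present throughout; the assay buffer was DPBS with 0.05% BSA and 0.005% Tween 20.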
TRPV1 potentiator = HTS Assay for Compounds that Act as Potentiators of the Vanilloid Receptor 1. Transient receptor potential cation channel subfamily V member 1 (Homo sapiens), Q8NER1. TRPV1-expressing cells, Fluo-8 calcium influx, capsaicin EC20 potentiation; host cell line not named in the record; control for the full effect not named in the record. potentiation, % at 8.33 µM. 320,000 compounds, 0.02% hits. AID 540277, 2011; active means potentiation above 80%; inconclusive means 30% to 80%; inactive means below 30%; note: 0% is about no effect
Target sequence (Q8NER1 whole entry, looked up): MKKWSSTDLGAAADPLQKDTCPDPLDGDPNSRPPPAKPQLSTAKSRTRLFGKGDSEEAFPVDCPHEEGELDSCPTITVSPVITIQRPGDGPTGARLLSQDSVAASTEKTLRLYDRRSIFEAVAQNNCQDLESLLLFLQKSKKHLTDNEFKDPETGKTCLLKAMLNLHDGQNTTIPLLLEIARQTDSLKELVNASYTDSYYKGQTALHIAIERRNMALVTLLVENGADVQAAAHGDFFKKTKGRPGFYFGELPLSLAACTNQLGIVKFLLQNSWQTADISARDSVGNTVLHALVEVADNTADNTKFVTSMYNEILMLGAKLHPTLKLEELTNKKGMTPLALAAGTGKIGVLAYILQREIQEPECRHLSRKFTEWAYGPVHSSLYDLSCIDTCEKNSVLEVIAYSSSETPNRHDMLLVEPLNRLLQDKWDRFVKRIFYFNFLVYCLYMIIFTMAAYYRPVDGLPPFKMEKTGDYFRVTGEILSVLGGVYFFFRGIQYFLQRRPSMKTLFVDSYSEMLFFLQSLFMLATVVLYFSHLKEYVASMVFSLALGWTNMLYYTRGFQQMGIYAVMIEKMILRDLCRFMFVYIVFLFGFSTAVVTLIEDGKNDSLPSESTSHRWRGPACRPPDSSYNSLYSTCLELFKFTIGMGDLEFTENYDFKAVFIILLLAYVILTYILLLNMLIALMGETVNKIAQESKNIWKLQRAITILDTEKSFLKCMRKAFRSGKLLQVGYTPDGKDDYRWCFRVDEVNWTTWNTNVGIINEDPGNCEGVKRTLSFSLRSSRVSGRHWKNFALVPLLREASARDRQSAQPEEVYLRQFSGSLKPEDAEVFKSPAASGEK
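TRPV1-expressing cells were cultured overnight at 35.5C and loaded with Fluo-8 calcium dye for 40 to 90 min at room temperature. After a 10 s baseline, compound was added and calcium influx was read kinetically for 3 min (ex 480/em 520 nm).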
D2 potentiator = Beta-Arrestin HTS for Positive Allosteric Modulators of the Human D2 Dopamine Receptor: Potentiators; DiscoveRx D2 beta-arrestin cells, luminescence, 90 min; 100% = 57 uM dopamine signal; 360,000 compounds, 0.23% hits; potentiation, % (no concentration beside the values); active = potentiation of 50% or more; inconclusive = 30% to 50%; inactive = 30% or less;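 note: compound concentration not given in the record; tested on top of an EC20 dose of dopamine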
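PathHunter D2 cells, attached overnight at 37 deg C, received compound in DMSO plus dopamine at EC20 (50 nM final) for 90 min at 37 deg C. Beta-arrestin recruitment was read as luminescence after 1 h with detection reagent at ambient temperature.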
Sfp inh = qHTS Assay for Inhibitors of Bacillus subtilis Sfp phosphopantetheinyl transferase (PPTase); 4'-phosphopantetheinyl transferase ffp (Bacillus subtilis), Q9F4F7; Biochemical Sfp PPTase activity, qHTS; 310,000 compounds, 3.5% hits; Potency, µM, for the others: max response, negative = inhibition, most hits filed as inhibitors; active = well fitted inhibition curve with a large enough effect; inconclusive = small, poorly fitted or top-dose-only effect, or another doubt; inactive = no such curve, though single readings can be large or run the other way;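 note: the enzyme is Sfp with the accession as filed and its product quenches rhodamine fluorescence; potency is the fitted concentration of half-maximal effect; 0% = enzyme reaction without inhibitor and -100% = no enzyme wells; top concentration of the series not given in the record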
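Buffer: 50 mM Hepes-Na pH 7.6, 10 mM MgCl2, 0.01% Nonidet P-40, 0.01% BSA. Enzyme 15 nM, pre-exposed to compound 15 min; substrates then added and fluorescence change tracked over 30 min.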
* marks the source's active call; other numbers are inactive results; ? = inconclusive; nt = no result given; [ ] = remark or other dose.

SMILES | Menin-MLL FL inh | ClpP mod | gsp agonist | gsp antag | TRPV1 potentiator | D2 potentiator | Sfp inh
COc1ccc(Cl)cc1NC(=O)C1CCCN(c2cc(C)nc3ncnn23)C1 (stereo unspecified) | 0.1 | -0.8% | 43.8% | 7.4% | 4.0 | -13.4 | 6.2%
CN(C)S(=O)(=O)N1CCCC(C(=O)c2ccc(-c3ccccc3)c(F)c2)C1 (stereo unspecified) | -1.1 | 0.2% | 12.7% | ? | -1.9 | -12.1 | 3.6%
CCN(CC)S(=O)(=O)c1cc(NC(=O)c2cccc(N3C(=O)CCC3=O)c2)ccc1Cl | nt | 0.9% | 7.2%[15.4 µM] | -4.3% | -3.2 | -31.0 | nt
COc1ccc(C2=NN(c3nc(C)cc(C)n3)C(=O)C2)cc1 | -5.8 | 0.1% | 4.1%[15.4 µM] | 10.9% | -14.6 | -4.7 | 15.6%
Cc1cc(C(=O)CN2CCC(C)CC2)c(C)n1-c1ccccc1F | 2.2 | 1.6% | -60.6%[inhibitor] | 17.7% | -0.3 | -15.1 | 1.7%
COc1ccc(OC)c(CN2C(=O)CCC2(C)C(=O)NC2CCCCCC2)c1 (stereo unspecified) | 0.4 | -1.5% | 18.0% | 0.6% | -4.1 | -14.3 | 5.0%
COC(=O)c1cccc(NC(=O)CSc2nnc(COc3cccc(C)c3)n2C)c1 | -0.3 | 2.8% | 3.7% | ? | 2.7 | -0.8 | 8.4%
O=C(COC(=O)c1cccc(Br)c1)Nc1ccc2[nH]c(=O)[nH]c2c1 | nt | -3.3% | -8.5% | -0.1% | 4.6 | 10.3 | nt
O=C(O)CCNc1nc(-c2ccccc2)c2cc(Br)ccc2n1 | 6.2 | -27.2% | ? | -1.8% | 4.6 | -12.6 | 14.9%
CCCN1CCN(CC(=O)Nc2nnc(C)s2)CC1 | -1.0 | -1.2% | 4.1% | 7.5% | 7.1 | -28.5 | -18.6%
Cc1ccc(-c2cc(C(=O)NCc3ccccn3)c3ccccc3n2)cc1C | 4.0 | 31.6µM* | 19.9% | 8.3% | -4.3 | -4.8 | ?
CCCCNC(=O)c1cc(C)nc2ccccc12 | 0.7 | -5.2% | ? | 16.4% | 8.2 | -1.1 | 26.7%
Nc1ncc([N+](=O)[O-])cc1S(=O)(=O)c1ccccc1 | nt | 1.0% | 7.1% | -9.5% | nt | -3.1 | nt
O=C(c1ccoc1)N1CCC(CO)(CCc2ccccc2)CC1 | 3.4 | nt | -29.9% | 6.0% | 0.0 | -1.6 | -3.5%
O=C(Nc1cccc(O)c1)c1cccc(S(=O)(=O)N2CCCCCC2)c1 | -2.9 | nt | -2.6%[15.4 µM] | -0.6% | -10.5 | -1.0 | 8.2%
CCOC(=O)c1sc(C)c2c1NC(C)(c1cccs1)NC2=O (stereo unspecified) | 2.3 | 28.2µM* | 25.2% | 9.3% | -6.0 | -7.3 | 15.8%
N#CC1=C(N)OC2=C(C(=O)CCC2)C1c1ccccc1 (stereo unspecified) | 1.3 | -2.4% | 5.5% | 7.0% | ? | -6.8 | 15.3%
COc1ccccc1NS(=O)(=O)c1ccccc1C#N | -2.6 | -1.0% | -33.8%[inhibitor] | -4.3% | 0.5 | 1.1 | 10.5%
COc1cccc(C(=O)N2CCCC(Nc3ccc(C)c(C)c3)C2)c1 (stereo unspecified) | nt | -1.8% | -48.4% | -5.4% | -11.7 | 0.0 | 0.7%
CCN(CC)C(=O)CSc1nnc2nnc3cc(C)ccc3n12 | ? | nt | 22.8% | -5.4% | 0.8 | -8.4 | 10.9%
Oc1ccc(/C=N/NC(=S)N/N=C/c2ccc(O)cc2)cc1 | -1.4 | -1.7% | -37.0%[inhibitor] | -7.0% | 3.5 | -4.2 | 9.5%
C#CCOCCOCCOCCNc1nc(N2CCOCC2)nc(N2CCN(C(=O)[C@H](CCCN=C(N)N)n3cc(C(N)[C@@H](C)CC)nn3)CC2)n1 (stereo partly specified) | nt | -0.9% | nt | 11.9% | nt | -25.2 | nt
CCN(NC(=O)C(O)(c1ccccc1)c1ccccc1)C(=O)c1ccccc1 | 3.0 | -0.3% | 5.5% | 8.2% | -2.8 | -6.9 | 8.8%
Nc1cc(N2CCOCC2)c(Cl)cc1[N+](=O)[O-] | 1.0 | nt | 7.6%[15.4 µM] | -5.4% | 14.1 | 1.4 | 11.9%
O=C(O)C(CO)(c1ccccc1)c1ccccc1 | -0.1 | 1.0% | ? | 7.0% | -12.0 | -3.5 | 26.6%

Sorted by the number under gsp agonist (highest first): some entries from above.
canonical_smiles,gsp agonist
COc1ccc(Cl)cc1NC(=O)C1CCCN(c2cc(C)nc3ncnn23)C1 (stereo unspecified),43.8%
CCOC(=O)c1sc(C)c2c1NC(C)(c1cccs1)NC2=O (stereo unspecified),25.2%
Nc1ncc([N+](=O)[O-])cc1S(=O)(=O)c1ccccc1,7.1%
N#CC1=C(N)OC2=C(C(=O)CCC2)C1c1ccccc1 (stereo unspecified),5.5%

Following part.
SMILES | Menin-MLL FL inh | ClpP mod | gsp agonist | gsp antag | TRPV1 potentiator | D2 potentiator | Sfp inh
COc1ccc(S(=O)(=O)Cc2ccc(C(=O)N3CCCC3)o2)cc1 | -0.1 | 0.1% | -41.1%[inhibitor] | -0.6% | 27.0 | -4.1 | -6.0%
COc1ccc(N=C2C(=Nc3ccc(OC)cc3)N(c3ccc(N(C)C)cc3)C(=S)N2c2ccc(OC)cc2)cc1 | -0.5 | -0.4% | 9.2% | 0.7% | -20.9 | -6.6 | 3.0%
Cc1cc(C)c(C(=O)COC(=O)c2cccnc2Cl)c(C)c1 | -5.4 | 0.4% | -2.0% | 2.3% | -4.3 | -4.8 | 1.3%
O=C(Nc1ccc(C(F)(F)F)cc1)c1cc(-c2cccnc2)nc2ccc(Br)cc12 | 0.7 | 1.0% | ? | 3.9% | -10.9 | -4.9 | -6.8%
CC(C)(C)C(=O)COC(=O)CCc1nc2ccccc2[nH]c1=O | 0.6 | nt | -0.5%[15.4 µM] | -7.5% | -1.4 | 1.4 | -15.8%
O=C(COC(=O)CCC(=O)c1ccccc1)NCCc1ccccc1 | nt | 1.4% | -5.1%[15.4 µM] | -3.9% | -1.0 | 2.6 | nt
CCOc1ccc(CNC(=O)C2CCN(S(=O)(=O)c3ccc4c(c3)CCCC(=O)N4)CC2)cc1 | -1.5 | -1.5% | ? | -5.8% | -2.2 | -11.2 | 6.7%
COc1cc(NS(=O)(=O)c2ccc(Br)cc2)c(OC)cc1NC(=O)c1ccco1 | 7.1 | 0.4% | -27.0% | -12.7% | 5.4 | 11.5 | ?
Clc1cccc(-c2cc3nc4c(c(N5CCN(c6cnccn6)CC5)n3n2)CCCC4)c1 | 5.7 | 10µM* | ? | -3.8% | -9.3 | -13.1 | -16.8%
Cc1c2cnn(CC(=O)N3CCOCC3)c(=O)c2c(C)n1Cc1ccccc1F | 0.7 | -22.2% | -73.0%[inhibitor] | 2.6% | 17.1 | -0.3 | 6.9%
Cc1cc(C(=O)N2CCN(c3cc(Cl)ccc3C)CC2)on1 | 0.9 | 0.1% | 9.4% | -3.5% | -17.2 | 1.6 | -7.9%
Cc1cc(NC(=O)CSc2nc3cc(C(=O)NCCCOC(C)C)ccc3c(=O)n2Cc2ccco2)no1 | -0.2 | -0.3% | ? | 2.6% | -5.5 | -7.5 | 56.2µM*
Cc1nnc(Cl)c2nn(-c3ccccc3)c(C)c12 | 11.3 | -8.4% | -8.7% | 14.3% | 11.1 | 4.5 | 2.1%
COc1ccc(-c2cc(C(F)(F)F)nc(SCC(=O)N3CCOCC3)n2)cc1OC | -0.5 | ? | 8.4% | -24.9% | 13.5 | 0.3 | 10.0%
CCn1c(=O)cc(SCC(=O)NCc2ccco2)c2ccccc21 | 4.7 | -19.9% | ? | -20.6% | -2.9 | -10.0 | ?
Cc1ncoc1C(=O)N1CCCC(C(=O)c2ccc(-c3ccccc3)c(F)c2)C1 (stereo unspecified) | -2.6 | -0.3% | -0.2% | ? | -10.4 | -17.5 | -4.4%
Cc1cccc(NC(=O)c2c(-c3ccccc3)noc2C)n1 | -0.5 | -0.5% | 18.4%[15.4 µM] | 8.7% | 3.8 | 1.6 | 25.1%
NC(=O)C1(N2CCCCC2)CCN(C(=O)c2cccn3c(=O)c4cc(Cl)ccc4nc23)CC1 | 0.3 | ? | -9.0% | -15.0% | 18.9 | 0.4 | -2.4%
NC(=O)N/N=C/C=C/c1ccccc1 | -0.3 | -0.5% | -8.1%[15.4 µM] | 5.6% | 1.9 | -4.9 | 2.5%
CCOc1ccc(-n2nnc3c(=O)n(CC(=O)N4CCCc5ccccc54)cnc32)cc1 | -0.6 | -15.5% | -11.4% | -20.7% | 2.6 | -7.3 | 13.3%
CC(Oc1ccc(Cl)cc1Cl)C(=O)NC(Cc1ccccc1)C(=O)O (stereo unspecified) | nt | nt | -22.2% | 0.2% | nt | 2.5 | nt
Fc1ccccc1CNCC1CCCO1 (stereo unspecified) | 3.4 | 0.9% | 0.1%[15.4 µM] | 0.5% | -2.1 | -6.3 | -7.2%
COc1ccc(NC(=O)CN(C)C(=O)Cc2ccc3c(c2)OCCO3)cc1 | nt | -5.2% | -4.4% | 4.4% | 25.1 | 4.2 | nt

Two of these compounds, set out differently:
canonical_smiles,Menin-MLL FL inh,ClpP mod,gsp agonist,gsp antag,TRPV1 potentiator,D2 potentiator,Sfp inh
Cc1c2cnn(CC(=O)N3CCOCC3)c(=O)c2c(C)n1Cc1ccccc1F,0.7,-22.2%,-73.0%[inhibitor],2.6%,17.1,-0.3,6.9%
CCOc1ccc(CNC(=O)C2CCN(S(=O)(=O)c3ccc4c(c3)CCCC(=O)N4)CC2)cc1,-1.5,-1.5%,?,-5.8%,-2.2,-11.2,6.7%
